Screening results as filed in PubChem BioAssay.
PV pol inh: poliovirus RNA polymerase inhibition | AID 588519 | % elongation, % (compound at 16.7 µg/mL) | poliovirus polymerase elongation, fluorescence polarization; hits give low values | P03300 | actives 0.66% (n = 150,000); in the data active means % elongation below about 90%; further: some results filed as inactive read as strong as hits
Target sequence (P03300 1749-2209 limits assumed): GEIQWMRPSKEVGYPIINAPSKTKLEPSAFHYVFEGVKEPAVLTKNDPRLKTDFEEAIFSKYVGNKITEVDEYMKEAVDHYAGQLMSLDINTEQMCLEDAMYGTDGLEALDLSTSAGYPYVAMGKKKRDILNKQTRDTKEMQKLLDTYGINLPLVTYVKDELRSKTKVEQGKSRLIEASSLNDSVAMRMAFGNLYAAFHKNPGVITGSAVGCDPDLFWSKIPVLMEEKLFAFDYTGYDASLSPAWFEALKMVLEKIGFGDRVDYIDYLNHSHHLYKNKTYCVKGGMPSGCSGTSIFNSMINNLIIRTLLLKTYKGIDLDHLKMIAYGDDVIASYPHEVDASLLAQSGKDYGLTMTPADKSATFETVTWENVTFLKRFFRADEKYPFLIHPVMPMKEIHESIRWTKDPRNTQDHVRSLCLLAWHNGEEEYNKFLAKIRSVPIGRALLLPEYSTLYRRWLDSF
PV pol inh intensity: further read-out of PV pol inh, marked with its call; % elongation; measured here: total intensity read-out; formula for this scale not given here;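 total fluorescence in place of polarization; lower means less elongation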
Active calls of the source: *. The list is partial, so the mix of outcomes need not match the whole.

SMILES | PV pol inh | PV pol inh intensity
N#Cc1ccccc1NC(=O)c1cc2c(=O)n3ccccc3nc2s1 | 100 | 105
COc1ccc(OCC(=O)NC2CC(=O)N(c3ccc4c(c3)OCCO4)C2)cc1 (stereo unspecified) | 105 | 99
CC1CCN(S(=O)(=O)c2ccc3nc(-c4cccnc4)cc(C(=O)NCCCOC(C)C)c3c2)CC1 | 103 | 105
Cc1ccc(NC(=O)CN(C)S(=O)(=O)c2ccc3c(c2)n(C)c(=O)c(=O)n3C)cc1C | 99 | 104
COc1cc(NS(=O)(=O)c2ccc(-c3cc(C)no3)cc2)cc(OC)c1 | 121 | 118
COc1cccc(CNC(=O)Cn2nc3c(cc2=O)CCCC3)c1OC | 99 | 101
CCOc1ccc(-n2c(Cc3ccccc3)nnc2SCc2nc(-c3ccccc3OC)no2)cc1 | 110 | 111
CCC1=C(c2ccc(C)cc2)S(=O)(=O)N=C1N1CCC(C(=O)Nc2ccccc2F)CC1 | 103 | 108
COc1ccc(NC(=O)CCS(=O)(=O)c2cc(Br)cc3c2N(C(C)=O)CC3)c(OC)c1 | 100 | 95
COc1ccccc1CNC(=O)CSc1ncc2c(n1)-c1ccccc1N(Cc1ccc(C)cc1)S2(=O)=O | 104 | 110
COc1ccc(CNC(=O)Cc2csc3ccccc23)cc1OC | 106 | 112
Cc1ccc(CN2C(=O)CN(C3CCCCCC3)C(=O)C2c2ccc(F)cc2)cc1 (stereo unspecified) | 105 | 101
CCOC(=O)C1CCN(C(=O)Cn2ncc3c4ccccc4n(Cc4ccccc4F)c3c2=O)CC1 | 110 | 107
COC(=O)c1cccc(Nc2c(-c3ccc(O)c(OC)c3)nc3nc[nH]n23)c1 | 98 | 97
COc1ccc(C(=O)CC2(O)C(=O)Nc3c(C)cccc32)c(OC)c1OC (stereo unspecified) | 100 | 98
CCCN1CCCc2cc(CN(CCCN3CCOCC3)C(=O)Nc3ccc(OCC)cc3)ccc21 | 102 | 110
COc1cccc(C2c3c(oc4ccc(C)cc4c3=O)C(=O)N2CCCN2CCOCC2)c1OC (stereo unspecified) | 111 | 93
Cc1oc(-c2ccc(C(=O)NCc3ccc(F)cc3)cc2)nc1CS(=O)c1ccccc1 (stereo unspecified) | 107 | 109
CN1CCN(C(=O)c2cnn(-c3cccc(F)c3)c2C2CCN(C(=O)OC(C)(C)C)CC2)CC1 | 100 | 103
CCOc1ccc(C2C(C(N)=O)=C(C)Nc3nc(SCc4ccccc4F)nn32)cc1 (stereo unspecified) | 109 | 110
COc1ccc(CNC(=O)CN(c2ccc(C)cc2)S(=O)(=O)c2c(C)n[nH]c2C)cc1 | 109 | 111
Cc1ccc2c(c1)-c1nc(-c3ccc4c(c3)NC(=O)CO4)cc(-c3ccc(Cl)cc3)c1CO2 | 113 | 113
N#Cc1ccccc1CSc1nnc(-c2ccc(Br)cc2)o1 | 109 | 110
COc1ccc(NC(=O)c2oc3ccccc3c2NC(=O)COc2ccc(C(C)C)cc2)c(OC)c1 | 99 | 105
N#Cc1nc(-c2ccc(COc3ccc(Cl)cc3)o2)oc1N1CCN(c2ccccc2)CC1 | 102 | 110
CCOc1ccccc1NS(=O)(=O)c1ccc2[nH]c3c(c2c1)CCCCC3 | 106 | 107
CCN1CCN(CCCNC(=O)Cn2c(-c3cccs3)cc3cc(F)ccc32)CC1 | 104 | 92
CCN1CCSc2ccc(C(=O)NCc3ccc(OC)cc3)cc21 | 110 | 110
CC(C)CCNc1nc2c(S(=O)(=O)c3ccc(Br)cc3)nnn2c2ccsc12 | 110 | 99
COc1cc(NC(=O)C(Cc2ccccc2)NS(=O)(=O)c2cccc3nsnc23)cc(OC)c1 (stereo unspecified) | 107 | 111
Cc1ccc(CN2CCN(C3CCN(C(=O)c4ccccc4)CC3)C(=O)C2=O)cc1 | 109 | 109
CCN(Cc1ccccc1)S(=O)(=O)c1ccc(F)c(C(=O)Nc2ccc(C(C)C)cc2)c1 | 102 | 108
Cc1ccc(NC(=O)N(Cc2ccc3c(c2)OCO3)C2CCN(Cc3ccccc3)CC2)cc1C | 105 | 110
Cc1cccc(NC(=O)c2ccc(C(=O)Nc3cccc(C)c3C)cc2)c1C | 106 | 109
CCOC(=O)c1ccc(NC(=O)CN(Cc2ccc(C)cc2)S(=O)(=O)c2ccc(C)cc2)cc1 | 106 | 113
Cc1ccc(-n2cc(C(=O)OCc3ccc(Cl)cc3)c3ccccc3c2=O)cc1 | 104 | 106
O=C(CSc1nc2c([nH]c3ccccc32)c(=O)n1-c1ccccc1)Nc1ccc(Cl)c(Cl)c1 | 107 | 106
CCc1nnc2n1N(C(C)=O)C(c1ccc(C(C)(C)C)cc1)=C(C(C)=O)S2 | 108 | 110
Cc1ccc(NC(=O)CSc2nnc3nc(C)cc(C)n23)cc1 | 99 | 103
CCc1ccccc1NC(=O)CSc1nc2c(c(=O)[nH]1)CN(Cc1ccccc1OC)CC2 | 117 | 115
CCOC(=O)CNc1ncnc2c1nnn2C | 110 | 108
Cc1ccc(C)c(CN2CCC(CNC(=O)c3cc4ccc5cccnc5c4[nH]3)CC2)c1 | 103 | 110
Cc1ccc(OCCCn2c(-c3ccc(Cl)cc3)nc3ccccc3c2=O)cc1C | 104 | 104
CCOC(=O)c1c(S(=O)(=O)N2CCC(C(=O)N3CCN(c4cc(C)ccc4C)CC3)CC2)c(C)n(C)c1C | 108 | 113
CCC(C)NC(=O)C1CCN(S(=O)(=O)c2ccc3c(c2)CCCN3C(C)=O)CC1 (stereo unspecified) | 111 | 111
O=C(Cn1cnc(S(=O)(=O)N2CCCC2)c1)Nc1ccc(OC(F)(F)F)cc1 | 112 | 108
CCOC(=O)c1c(C)[nH]c(C)c1S(=O)(=O)N1CCC(C(=O)NCc2cccc(C)c2)CC1 | 103 | 108
COc1cccc(Cn2cnc3c2c(=O)n(C)c(=O)n3C)c1 | 107 | 105
COCCCNC(=O)CSc1c2c(nc3ccc(Cl)cc13)CCCC2 | 104 | 104
Cc1ccc(C(=O)O)cc1NC(=O)c1nsc2ccccc12 | 106 | 110
O=C1CS(=O)(=O)C2(C(=O)N(Cc3ccccc3)c3ccccc32)N1c1ccc(F)c(Cl)c1 (stereo unspecified) | 109 | 108
CCN(CC)S(=O)(=O)c1ccc(N2CCCCS2(=O)=O)cc1 | 104 | 110
COc1ccc(Cn2c(C(=O)O)c(CNCc3ccccc3F)c3ccc(OC)cc32)cc1 | 110 | 108
CCOc1ccc(CCNC(=O)CSc2cc(=O)n(C)c3cc(Cl)ccc23)cc1OCC | 102 | 105
O=C(Nc1cc(F)ccc1F)C1COc2ccccc2C1 (stereo unspecified) | 106 | 106
COC(=O)C(C)Sc1nc2c([nH]c3ccccc32)c(=O)n1-c1ccc(OC)cc1 (stereo unspecified) | 106 | 106
O=C(NCc1ccccc1Cl)C1CCN(S(=O)(=O)c2ccc3c(c2)CCCN3C(=O)C2CCC2)CC1 | 110 | 108
COC(=O)c1scc(-c2ccc(C)cc2)c1S(=O)(=O)Nc1ccc(NC(C)=O)cc1 | 101 | 101
Cc1c(CCNS(=O)(=O)c2ccccc2)sc2nc(-c3ccc(Cl)cc3)nn12 | 106 | 98
COc1ccc(C2CC(=O)N(CC(=O)Nc3ccc(C(F)(F)F)cc3)c3ccccc3S2)cc1 (stereo unspecified) | 111 | 111

(further entries)
SMILES | PV pol inh | PV pol inh intensity
CCCc1cc(=O)[nH]c(Nc2cc(Cl)cc(Cl)c2)n1 | 108 | 110
Cc1ccc(-n2c(/C=C/c3cc(Br)cs3)nc3ccccc3c2=O)cc1 | 107 | 108
O=C(Nc1ccc(Cl)cc1)c1cc(S(=O)(=O)N2CCCc3ccccc32)ccc1F | 112 | 105
CCn1c(=O)c2cc(C(=O)NCc3ccc(F)cc3Cl)sc2c2ccccc21 | 106 | 111
CC(=O)N1CCOc2cc(S(=O)(=O)N(C)Cc3ccccc3)c(Cl)cc21 | 102 | 104
COC(=O)c1ccc(NC(=O)c2cnn(-c3ccc(Cl)cc3)c2C2CCN(C(=O)OC(C)(C)C)CC2)cc1 | 100 | 97
Cc1ccc(NC(=O)Cn2cc(S(=O)(=O)Cc3ccc(F)cc3)c3ccccc32)cc1Cl | 106 | 108
COc1ccc(-c2noc(CSc3nnc(C)n3-c3ccc(OC)cc3)n2)cc1 | 111 | 102
COc1cccc(NC(=O)C(=O)NCC(c2cccnc2)N2CCN(c3ccccc3)CC2)c1 (stereo unspecified) | 103 | 96
COc1cc(NC(=O)N2CCC(CN3CCOCC3)CC2)cc(OC)c1OC | 112 | 109
Cc1ccc2cccc(NC(=O)c3ccc(-c4ccc(Br)cc4)o3)c2n1 | 106 | 109
CCOc1ccc(N(C(=O)c2ccccc2F)S(=O)(=O)c2ccc3c(c2)n(C)c(=O)n3C)cc1 | 106 | 106
CC1=Nc2cc(C(=O)NC3CCCC3)ccc2Sc2ccc(Br)cc21 | 108 | 107
CCc1ccccc1NC(=O)Cn1ccn(-c2cc(C)cc(C)c2)c(=O)c1=O | 103 | 106
CCn1c(=O)n(-c2ccc3c(c2)OCO3)c2nc(-c3cccc(OC)c3OC)nc(C(N)=O)c21 | 106 | 110
Cc1ccc(CNC(=O)CCc2c(C)nn(-c3ccc(N4CCOCC4)nn3)c2C)cc1 | 107 | 104
Cc1c(-c2nsc(NC(=O)c3cccs3)n2)nnn1-c1ccc(Br)cc1 | 107 | 112
COC(=O)c1ccc2c(c1)N(Cc1ccc(F)cc1)C(=O)c1ccccc1S2 | 104 | 112
CSc1cccc(NC(=O)Cn2c(=O)n(Cc3ccccc3)c(=O)c3sc4ccccc4c32)c1 | 98 | 97
Cc1cc(C)c(NC(=O)CN2C(=O)c3cccnc3Oc3ccc(C)cc32)c(C)c1 | 102 | 103
COc1cc(C2c3c(-c4ccccc4O)n[nH]c3C(=O)N2CCO)ccc1OCc1ccccc1 (stereo unspecified) | 111 | 112
COc1cc(C(=O)N2CCc3c([nH]c4ccccc34)C2c2ccc(C)cc2)cc(OC)c1OC (stereo unspecified) | 101 | 107
COc1ccc(NC(=O)CSc2nc(C)cc(C)c2C(=O)Nc2ccccc2OC)cc1 | 112 | 114
O=C(Cc1ccccc1)Nc1sc2c(c1C(=O)Nc1ccccc1)CCCCC2 | 100 | 104
COc1ccc(NC(=O)CCCc2nnc3n(CCC(C)C)c(=O)c4sccc4n23)cc1Cl | 113 | 111
CCCn1c(=O)c2c(nc3n2CCN3c2ccc(C)cc2)n(C)c1=O | 113 | 114
COc1cc2ccccc2cc1C(=O)Nc1ccc2oc(-c3ccc(F)cc3)nc2c1 | 107 | 112
Cc1ccc(-c2nc(N3CCCC(C)C3)c3ccccc3n2)cc1 (stereo unspecified) | 104 | 102
O=C(NCCc1ccc(Cl)cc1)c1cccn1-c1nnc(N2CCCC2)s1 | 109 | 100
COc1cc(-c2nc3nc[nH]n3c2Nc2ccc(C(C)C)cc2)ccc1O | 103 | 107
O=C1CC(c2nc(-c3ccc(Cl)cc3)no2)CN1c1ccc2c(c1)OCCO2 (stereo unspecified) | 101 | 105
Cc1cccc(N2CCN(S(=O)(=O)c3c(C)nc4scc(C)n4c3=O)CC2)c1C | 104 | 99
CCc1ccc2oc(-c3ccc(C)c(NC(=O)c4ccc(C#N)cc4F)c3)nc2c1 | 108 | 111
CCOC(=O)COc1ccc(CC)cc1C(=O)c1ccn2nc(-c3ccc(C)cc3)cc2n1 | 104 | 106
COc1ccc(OC)c(CCNC(=O)c2ccc(CS(=O)Cc3cccc(Cl)c3)o2)c1 (stereo unspecified) | 105 | 107
COc1ccc(N(C)C(=O)c2oc(=O)c3ccccc3c2-c2ccc(C)cc2)c(OC)c1 | 110 | 111
Cc1ccc(S(=O)(=O)C(CNC(=O)C(=O)NCCc2ccccc2)c2cccs2)cc1 (stereo unspecified) | 101 | 100
CCc1ccc(NC(=O)CN2CCN(C3CCCCC3)C(=O)C2=O)cc1 | 104 | 102

Grouped by structure: those above with an aryl thioether with sulfur outside any ring.
SMILES | PV pol inh | PV pol inh intensity
CCOc1ccc(-n2c(Cc3ccccc3)nnc2SCc2nc(-c3ccccc3OC)no2)cc1 | 110 | 111
COc1ccccc1CNC(=O)CSc1ncc2c(n1)-c1ccccc1N(Cc1ccc(C)cc1)S2(=O)=O | 104 | 110
CCOc1ccc(C2C(C(N)=O)=C(C)Nc3nc(SCc4ccccc4F)nn32)cc1 (stereo unspecified) | 109 | 110
N#Cc1ccccc1CSc1nnc(-c2ccc(Br)cc2)o1 | 109 | 110
O=C(CSc1nc2c([nH]c3ccccc32)c(=O)n1-c1ccccc1)Nc1ccc(Cl)c(Cl)c1 | 107 | 106
Cc1ccc(NC(=O)CSc2nnc3nc(C)cc(C)n23)cc1 | 99 | 103
CCc1ccccc1NC(=O)CSc1nc2c(c(=O)[nH]1)CN(Cc1ccccc1OC)CC2 | 117 | 115
COCCCNC(=O)CSc1c2c(nc3ccc(Cl)cc13)CCCC2 | 104 | 104
CCOc1ccc(CCNC(=O)CSc2cc(=O)n(C)c3cc(Cl)ccc23)cc1OCC | 102 | 105
COC(=O)C(C)Sc1nc2c([nH]c3ccccc32)c(=O)n1-c1ccc(OC)cc1 (stereo unspecified) | 106 | 106
COc1ccc(-c2noc(CSc3nnc(C)n3-c3ccc(OC)cc3)n2)cc1 | 111 | 102
CSc1cccc(NC(=O)Cn2c(=O)n(Cc3ccccc3)c(=O)c3sc4ccccc4c32)c1 | 98 | 97
COc1ccc(NC(=O)CSc2nc(C)cc(C)c2C(=O)Nc2ccccc2OC)cc1 | 112 | 114

In a second layout: 3 of the compounds above.
compound	PV pol inh	PV pol inh intensity
COc1cc(-c2nc3nc[nH]n3c2Nc2ccc(C(C)C)cc2)ccc1O	103	107
O=C1CC(c2nc(-c3ccc(Cl)cc3)no2)CN1c1ccc2c(c1)OCCO2 (stereo unspecified)	101	105
Cc1cccc(N2CCN(S(=O)(=O)c3c(C)nc4scc(C)n4c3=O)CC2)c1C	104	99
